# Bioassay records from PubChem.
# PINK1 modulator – A Quantitative High throughput Screen to Identify Chemical Modulators of PINK1 Expression; PINK1 immunofluorescence, high-content cytometry, 24 h; Potency, µM (highest dose often 76.6 µM), inactives show at the top dose activation (PINK1 increase), usual class: activators; hit rate 0.2% among 410,000; AID 624263, 2012; active = well fitted activation curve with a large enough effect; inconclusive = small, poorly fitted or top-dose-only effect; inactive = flat fitted curve, though single readings scatter; cell line not stated here;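 note: potency is the fitted concentration of half-maximal effect; % of control where 0% means no effect; nearly all actives have a fitted effect of over 65% in size; a mitochondrial uncoupler was the plate control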
#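 Fluorescence from anti-PINK1 antibody, together with nuclear and cell stains, was scanned on a laser-scanning cytometer. Before staining, stable-line cells were incubated 24 hours with compounds at 5 concentrations; primary antibody 12 h at 10 degrees C.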
# gsp ag – qHTS for Agonist of gsp, the Etiologic Mutation Responsible for Fibrous Dysplasia/McCune-Albright Syndrome: qHTS; gsp mutant cells, cAMP HTRF, 30 min; control for the full effect not named in the record; hit rate 0.13% among 340,000; Potency, µM (titrated, usually from 76.9 µM), for inactives: at the top dose activation (cAMP increase), usual class: activators; active = well fitted activation curve with a large enough effect; inconclusive = small, poorly fitted or top-dose-only effect, or another doubt; inactive = no such curve, though single readings can be large or run the other way; cell line not stated here;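 note: phosphodiesterase inhibitor Ro 20-1724 added with compounds to block cAMP breakdown; potency is the fitted concentration of half-maximal effect; nearly all actives have a fitted effect of over 60% in size; about a fifth of the inactives were tested at one dose only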
#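 Cells stably selected in G418 were plated at 2000/well, grown 16-24 hr, then given compounds in DMSO with the PDE inhibitor […] (300 uM solution added) for 30 min at 37C; cAMP was read by HTRF.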
# ClpP mod – qHTS Assay for Activators of ClpP; ATP-dependent Clp protease proteolytic subunit (Bacillus subtilis (strain 168)), P80244; purified B. subtilis ClpP, FRET peptide cleavage, 20 min; Potency, µM (series often up to 57.5 µM), for inactives: at the highest dose activity change, negative = active; hit rate 1.9% among 340,000; AID 651965, 2013; active = well fitted falling curve with a large enough effect; inconclusive = small, poorly fitted or top-dose-only effect; inactive = no such curve, though single readings can be large or run the other way; note: potency is the fitted concentration of half-maximal effect; the source files actives as falling curves though it sought activators and does not explain the sign; nearly all actives have a fitted effect of over 65% in size; many hits overshoot -100%
# Target sequence (P80244 whole entry, looked up): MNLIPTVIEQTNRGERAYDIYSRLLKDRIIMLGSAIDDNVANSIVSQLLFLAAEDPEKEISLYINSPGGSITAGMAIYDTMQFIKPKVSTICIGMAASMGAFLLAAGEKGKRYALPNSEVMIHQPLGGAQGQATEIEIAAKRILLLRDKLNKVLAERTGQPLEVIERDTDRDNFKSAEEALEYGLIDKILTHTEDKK
#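 FRET quenching reversal measured ClpP activation: 10 microg/mL B. subtilis ClpP at pH 8 with the FRET-FV decapeptide, read at 430 nm after 320 nm excitation. The 20-min minus 0-min signal was scaled between DMSO/no-enzyme wells and ADEP (5.8 microM final).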
# D2 ag – Beta-Arrestin HTS for Positive Allosteric Modulators of the Human D2 Dopamine Receptor: Agonists; D(2) dopamine receptor (Homo sapiens), P14416; DiscoveRx PathHunter D2 beta-arrestin, luminescence, 90 min; 100% = 57 uM dopamine signal; activation, % (test concentration not listed); hit rate 0.084% among 360,000; AID 624465, 2012; in the data active = activation above about 40%; inconclusive = about 15% to 40%; inactive = below about 15%; note: compound concentration not given in the record; the text of the record calls up to 30% inactive
# Target sequence (P14416 whole entry, looked up): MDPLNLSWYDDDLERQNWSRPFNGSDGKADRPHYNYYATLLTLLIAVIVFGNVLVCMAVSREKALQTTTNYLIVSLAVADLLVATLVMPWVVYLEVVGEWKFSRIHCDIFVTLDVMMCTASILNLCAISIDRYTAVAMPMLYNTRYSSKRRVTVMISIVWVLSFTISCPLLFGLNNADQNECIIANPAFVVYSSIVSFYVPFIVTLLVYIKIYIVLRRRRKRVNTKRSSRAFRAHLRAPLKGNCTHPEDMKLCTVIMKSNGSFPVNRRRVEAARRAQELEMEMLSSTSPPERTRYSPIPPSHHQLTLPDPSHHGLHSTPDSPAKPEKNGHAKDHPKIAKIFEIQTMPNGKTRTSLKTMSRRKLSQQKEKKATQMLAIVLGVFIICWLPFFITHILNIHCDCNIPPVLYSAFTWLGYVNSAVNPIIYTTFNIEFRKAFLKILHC
#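 DiscoveRx PathHunter D2 beta-arrestin cells (2,100/well) attached overnight, then compound-stimulated 90 min at 37 C in HBSS/10 mM HEPES/0.1% Tween-20 buffer; beta-galactosidase complementation read by luminescence after 1 h at ambient temperature. Dopamine 57 uM final (EC100) as control.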
# gsp antagonist – qHTS for Antagonists of gsp, the Etiologic Mutation Responsible for Fibrous Dysplasia/McCune-Albright Syndrome: qHTS | hit rate 0.4% among 340,000 | gsp-mutant cells, cAMP HTRF, 30 min; control for the full effect not named in the record | AID 624288, 2012 | Potency, µM (highest dose often 76.9 µM), for the others: at the highest dose activity change, negative = inhibition, usual class: inhibitors; active = falling curve of any shape with a large fitted effect; inconclusive = falling curve, mostly with a smaller effect; inactive = flat or rising curve; cell line not stated here;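 note: intracellular cAMP measured with PDE inhibitor Ro 20-1724 present during compound exposure; potency is the fitted concentration of half-maximal effect; % is set by controls: 0 for no effect and ±100 for the full control effect; nearly all actives have a fitted effect of over 65% in size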
#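 Cells in G418 medium, seeded 16-24 h, 37C; buffer exchange to DPBS + 1 mM CaCl2, 0.5 mM MgCl2, 0.05% BSA; cpds in DMSO + […] (300 uM stock), 30 min 37C; HTRF cAMP detection.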
# Menin-MLL FL inh – qHTS Assay for Inhibitors Targeting the Menin-MLL Interaction in MLL Related Leukemias: Competition With Fluorescein Labeled MLL-derived Peptide. 290,000 tested, under 10 active. FP activity change, % at 61.4 µM. Fluorescence polarization, fluorescein-MLL peptide displacement from menin. AID 1766, 2009; inconclusive = falling polarisation curve, or a change in total fluorescence; inactive = total fluorescence flat and polarisation flat or rising; no compound was filed as active; the % refers to the polarisation; negative = inhibition;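 note: % of control where 0% means no effect; inhibitors lower the polarisation; unlabelled MLL peptide was the positive control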
# Sfp PPTase inh – qHTS Assay for Inhibitors of Bacillus subtilis Sfp phosphopantetheinyl transferase (PPTase) | 4'-phosphopantetheinyl transferase ffp (Bacillus subtilis), Q9F4F7 | Biochemical Sfp PPTase activity, qHTS | Potency, µM, without a hit: max response, negative = inhibition, most hits filed as inhibitors | hit rate 3.5% among 310,000 | AID 1490, 2009; active = well fitted inhibition curve with a large enough effect; inconclusive = small, poorly fitted or top-dose-only effect, or another doubt; inactive = no such curve, though single readings can be large or run the other way;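 note: the enzyme is Sfp with the accession as filed and its product quenches rhodamine fluorescence; potency is the fitted concentration of half-maximal effect; 0% = enzyme reaction without inhibitor and -100% = no enzyme wells; top concentration of the series not given in the record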
#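 After 15 min at room temperature with compound, 15 nM Sfp received 5 uM rhodamine-CoA plus 12.5 uM BHQ-2-ybbR (50 mM Hepes pH 7.6, 10 mM MgCl2). Rate came from the fluorescence difference over 30 min, ex 525/em 598 nm.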
# * marks the source's active call; other numbers are inactive results; ? = inconclusive; . = no result given; [ ] = dose if it differs, or a comment. No enrichment for hits; about 5.1% have a hit in one of these screens.
SMILES,PINK1 modulator,gsp ag,ClpP mod,D2 ag,gsp antagonist,Menin-MLL FL inh,Sfp PPTase inh
COc1ccc(C)cc1NC(=O)CN1CCN(C/C=C/c2ccccc2)CC1,0.6%,-6.5%,-2.3%,-3.1,-1.3%,7.8,89.1µM*
CC(=O)c1sc(NC(=O)c2ccco2)nc1-c1ccccc1,-0.4%,2.2%,0.9%,-2.4,-3.7%,-1.5,9.8%
FC(F)(F)c1cnc(-n2cc[nH]c2=S)c(Cl)c1,2.6%,-1.2%,4.1%,-1.6,12.7%,-3.0,-1.7%
Cc1ccc(C(=O)NC(=S)NNC(=O)CCN2CCOCC2)cc1,-0.6%,-13.2%[15.4 µM],.,-4.2,.,-0.9,-29.8%
CC(=O)N1c2ccccc2C(C)(C)C2CCC(C)CC21 (stereo not drawn),-2.2%,-22.6%,0.9%,-0.7,-1.4%,-1.6,-4.6%
Cc1cc(Cl)c(S(=O)(=O)N2CCN(c3ccc(F)cc3)CC2)cc1OCC(N)=O,4.3%,-1.0%,0.8%,-4.2,-2.3%,2.2,-8.0%
Cc1ccc(CNC(=O)COC(=O)c2cnccn2)cc1,-2.1%[38.3 µM],34.7%,0.6%,-2.3,8.6%,2.3,12.0%
CCC1=Nc2cc(C(=O)NCc3cccnc3)ccc2Sc2ccc(C)cc21,2.7%,-0.2%[15.4 µM],.,-3.1,15.9%,0.1,15.8%
COc1cccc(-c2nn(C)c3sc(C(=O)NCCCN(C)Cc4ccccc4)cc23)c1,-1.3%,?,4.1%,6.7,-3.4%,-7.3,0.2%
COc1ccccc1CCn1c(N)c(C#N)c2nc3ccccc3nc21,21.5%[38.3 µM],-44.1%[inhibitor],31.6µM*,-5.6,-2.5%,3.7,-17.2%
CC1CCN(CCCCOc2ccc(C(C)(C)C)cc2)CC1,14.5%,2.4%,-0.5%,1.8,5.9%,0.8,-26.4%
Cn1cnc(S(=O)(=O)NCc2ccccc2)c1,-4.0%,5.9%,0.5%,-3.7,11.4%,3.7,10.7%
COC(=O)c1sc(N2C(=O)C(=O)/C(=C(/O)c3ccc(C)cc3)C2c2ccco2)nc1C (stereo not drawn),-1.2%,18.3%[15.4 µM],.,-2.6,-12.3%,9.7,-11.4%
CC(C)[C@H](NC(=O)OC(C)(C)C)c1nnc(SCC(=O)Nc2ccc(Br)cc2)o1,-0.6%,4.7%,-0.5%,1.3,35.5µM*,4.2,23.6%
CC(C)(C)n1c(O)c2n(c1=O)Cc1ccccc1N=C2c1ccccc1,0.4%,.,2.7%,-4.1,.,.,.
NS(=O)(=O)c1ccc(NN=C2CCCCC2)c([N+](=O)[O-])c1,-2.0%,22.5%,-1.2%,7.6,-15.8%,0.0,-1.6%
O=C(CN1CCN(S(=O)(=O)c2ccc(Cl)c(Cl)c2)CC1)N1CCCC1,-1.6%,-49.8%,-1.9%,1.3,-14.2%,.,.
Cc1ccc(S(=O)(=O)CCC(=O)NCCc2ccccc2)cc1,-0.8%,6.1%,0.4%,2.7,3.6%,-3.5,6.4%
CCOc1cc(N2CCOCC2)c(OCC)cc1NC(=O)COC(=O)c1ccccc1C,3.8%,18.4%[15.4 µM],.,-5.9,-3.7%,2.0,3.7%
Cc1nn(CCCC(=O)Nc2cnn(Cc3ccc(F)cc3)c2)c(C)c1[N+](=O)[O-],0.3%,-33.6%[inhibitor],-0.5%,4.1,-0.4%,-0.9,11.2%
Cc1cnc(CNc2ncnc3ccc(-c4cccc(C#N)c4)cc23)cn1,-0.1%,.,.,.,.,-1.0,3.7%
CCOc1ccc(NC(=O)C2CCCN2S(=O)(=O)c2ccc3c(c2)C(C)(C)C(=O)N3C)cc1 (stereo not drawn),-1.7%,13.8%,-0.1%,5.3,-12.0%,4.7,18.1%
COc1ccc(S(=O)(=O)NNC(=O)C23CC4CC(CC(C4)C2)C3)cc1[N+](=O)[O-],2.0%,3.1%,-1.2%,-2.1,7.2%,.,.
Cc1nc(N2CCN(Cc3ccc4c(c3)OCO4)CC2)c2cc(-c3ccccc3)sc2n1,0.9%,34.8%,.,5.3,-20.6%,0.9,?
CN(CC(=O)Nc1ccc(F)cc1)C(=O)C1CC(=O)N(Cc2ccccc2)C1 (stereo not drawn),1.0%,22.4%,-2.8%,-1.3,3.8%,-0.6,10.8%
O=C1N(c2ccccc2)C[C@@H]2C[C@@H](c3cccc4c3OCO4)N3CCC[C@@]123,-1.4%,-10.7%,.,-5.7,1.5%,-4.9,11.2%
C[C@H](CO)N1C[C@H](C)[C@@H](CN(C)C(=O)Nc2ccc3c(c2)OCO3)Oc2ccc(NC(=O)Nc3ccc4c(c3)OCO4)cc2C1=O,-0.3%,.,-3.9%,-0.9,2.3%,.,.
Cc1ccc(S(=O)(=O)/N=C(/Nc2c(C)cccc2C)c2ccccc2)cc1,-0.1%,-0.9%,-0.5%,0.7,-4.8%,.,.
O=c1oc(CCCO)cc2ccc(C#Cc3ccsc3)cc12,0.9%,-17.9%,4.2%,2.9,?,.,.
O=S(Cc1ccc(Cl)cc1)CC(O)COCc1ccc(Cl)cc1 (stereo not drawn),4.0%[38.3 µM],?,-0.8%,-2.3,-54.1%,-1.7,6.8%
O=C1CC(N2CCN(c3ccc(F)cc3)CC2)C(=O)N1c1ccc(F)cc1 (stereo not drawn),0.0%,0.5%,1.4%,-1.8,7.2%,1.2,7.0%
COc1ccc(Cc2noc(-c3ccc([N+](=O)[O-])cc3)n2)cc1OC,-0.6%,22.6%,-0.4%,?,-15.0%,-0.3,-12.1%
COc1ccc(C(C)=O)c(Oc2cc(NN3CCCCC3)c([N+](=O)[O-])cc2[N+](=O)[O-])c1,-0.2%,.,-6.5%,-2.7,3.9%,4.0,11.0%
C#CCOCCOCCOCCNc1nc(N2CCN(C(=O)C([C@@H](C)CC)n3cc(C(N)Cc4ccc(O)cc4)nn3)CC2)nc(N2CCN(C(=O)[C@H](CCC(=O)O)n3cc(C(N)CO)nn3)CC2)n1 (stereo partly drawn),1.5%,.,-2.3%,-1.2,9.0%,1.5,6.1%
CC(NC(=O)COC(=O)c1ccc([N+](=O)[O-])s1)c1ccccc1 (stereo not drawn),0.6%,12.0%,-9.8%,3.1,-2.6%,1.9,7.6%
COc1cccc(C2N(c3ccccc3)CCN2c2ccccc2)c1OC,-0.4%,0.7%[15.4 µM],.,-3.6,-7.0%,-1.2,11.6%
CCCCOC(=O)C(C)Sc1n[nH]c(=O)[nH]c1=O (stereo not drawn),-0.5%,?,0.1%,-5.1,-0.2%,-4.9,-1.4%
CCC(OC(=O)c1cccs1)C(=O)NCc1ccc2c(c1)OCO2 (stereo not drawn),-1.4%,?,-1.2%,0.6,2.6%,1.5,5.0%
CCN1C(=O)C(CC(=O)Nc2ccc(C)cc2C)Nc2cc(S(=O)(=O)N(C)C)ccc21 (stereo not drawn),-0.2%,-6.1%,-0.9%,-1.5,-14.1%,-5.1,11.7%
Cc1ccc(CN=Cc2[nH]c3ccc(Br)c(Cl)c3c2O)cc1,11.2µM*,9.6%,-0.8%,-3.4,-2.0%,?,?
Cc1cccn2c(=O)c(C=O)c(N3CCCCC3)nc12,0.3%,-4.1%[15.4 µM],.,-4.7,5.1%,1.2,-7.4%
CC(C)CNS(=O)(=O)c1cc(C(=O)OCC(=O)N2CCOCC2)c(Cl)cc1Cl,1.8%,1.3%,.,0.1,-6.2%,-0.4,7.6%
O=C(CSC1=Nc2ccccc2C2=NC(c3ccccc3)C(=O)N12)NC1CCCCC1 (stereo not drawn),-2.4%,7.4%,11.2µM*,-2.6,-13.1%,0.3,0.2%
O=S(=O)(NCCc1ccccn1)c1cccs1,0.5%,-5.7%,0.3%,-1.7,2.7%,1.3,3.1%
Oc1ccc(/C=N/Nc2cc(N3CCOCC3)nc(N3CCOCC3)n2)cc1,-0.7%[38.3 µM],2.6%,-8.8%,-2.5,-13.4%,.,.
Cc1nn(-c2ccccc2)c(-c2ccccc2[N+](=O)[O-])c1CC#N,1.0%,.,-2.0%,-3.0,.,.,.
C[C@@H]1CCCCO[C@H](CN(C)C(=O)Nc2cccc3ccccc23)[C@@H](C)CN([C@H](C)CO)C(=O)c2cc(NC(=O)c3ccccc3)ccc2O1,1.0%,18.7%,4.0%,-6.9,.,.,.
CN(C(=O)/C(N=Nc1cccc(C(F)(F)F)c1)=C(\O)C(F)(F)F)c1ccccc1,-27.4%[38.3 µM],6.9%,-0.3%,-1.9,?,2.4,43.4%[activator]
COc1ccc2cc(CCNC(=O)C(C)C)c(=O)[nH]c2c1,0.1%,9.8%,5.2%,-1.6,8.2%,3.1,18.2%
Cc1ccc(C)c(OCCCC(=O)O)c1,0.1%,8.9%,1.6%,-2.6,9.9%,5.7,14.3%
Cc1csc(=O)n1CCC(=O)OC(C)C(=O)NCc1ccccc1 (stereo not drawn),1.4%,?,.,-0.1,5.8%,.,.
COC(=O)[C@H](Cc1ccccc1)NC(=O)/C=C/[C@H]1O[C@@H](n2cc(C)c(=O)[nH]c2=O)C[C@@H]1O,0.3%,.,-1.3%,-6.0,.,.,.
CC(C)N(C(=O)C1CC(=O)OC12CCCCC2)C(C)C (stereo not drawn),9.2%[38.3 µM],-8.0%,1.0%,-1.9,5.5%,-0.7,7.6%
CCOC(=S)N/C(=N\S(C)(=O)=O)c1ccccc1,-0.3%,18.2%,-1.7%,-0.9,-14.9%,-0.1,20µM*
CCOC(=O)C1(Cc2ccccc2C)CCCN(C(=O)c2ccc(OC)o2)C1 (stereo not drawn),0.8%,-31.2%[inhibitor],1.3%,1.7,-7.9%,-0.9,-23.7%
CCN(c1ccccc1)S(=O)(=O)c1ccc(C(=O)N(C)CCc2ccc(OC)c(OC)c2)cc1,0.3%,1.1%,.,0.1,-4.0%,-6.0,15.1%
